# gsp antagonist: qHTS for Antagonists of gsp, the Etiologic Mutation Responsible for Fibrous Dysplasia/McCune-Albright Syndrome: qHTS. Potency, µM (highest dose often 76.9 µM), for inactives: at the top dose activity change, negative = inhibition, most hits filed as inhibitors. AID 624288, 2012. 0.4% of 340,000 active. gsp-mutant cells, cAMP HTRF, 30 min; control for the full effect not named in the record; active = falling curve of any shape with a large fitted effect; inconclusive = falling curve, mostly with a smaller effect; inactive = flat or rising curve; cell line not stated here;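 also: intracellular cAMP measured with PDE inhibitor Ro 20-1724 present during compound exposure; potency is read from the fitted curve at half-maximal effect; % is scaled to controls: 0 for no effect and ±100 for the full control effect; nearly all actives have a fitted effect of over 65% in size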
#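 HTRF cAMP read-out (cAMP-d2 plus anti-cAMP antibody-K in lysis buffer, 30 min RT). Before lysis, cells are exposed to compounds with […] for 30 min at 37C in DPBS containing Ca/Mg, BSA and Tween 20.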
# D2 PAM: Beta-Arrestin HTS for Positive Allosteric Modulators of the Human D2 Dopamine Receptor: Potentiators. D(2) dopamine receptor (Homo sapiens), P14416. DiscoveRx D2 beta-arrestin cells, luminescence, 90 min; 100% = 57 uM dopamine signal. potentiation, % (test concentration not listed). 0.23% of 360,000 active. AID 624464, 2012; active = potentiation of 50% or more; inconclusive = 30% to 50%; inactive = 30% or less;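 also: compound concentration not given in the record; tested on top of an EC20 dose of dopamine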
# Target sequence (P14416 whole entry, looked up): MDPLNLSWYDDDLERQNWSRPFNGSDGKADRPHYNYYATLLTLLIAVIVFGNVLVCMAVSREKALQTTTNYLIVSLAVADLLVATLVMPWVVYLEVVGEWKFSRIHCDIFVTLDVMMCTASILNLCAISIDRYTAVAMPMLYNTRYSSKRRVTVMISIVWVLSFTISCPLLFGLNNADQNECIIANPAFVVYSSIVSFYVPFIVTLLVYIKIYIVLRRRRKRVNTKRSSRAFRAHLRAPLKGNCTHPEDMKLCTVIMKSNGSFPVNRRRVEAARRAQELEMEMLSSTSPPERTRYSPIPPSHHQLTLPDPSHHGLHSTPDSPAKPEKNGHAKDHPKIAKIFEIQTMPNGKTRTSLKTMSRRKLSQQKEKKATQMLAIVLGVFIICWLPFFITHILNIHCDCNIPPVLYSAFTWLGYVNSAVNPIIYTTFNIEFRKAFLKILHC
#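 PathHunter D2 cells, attached overnight at 37 deg C, received compound in DMSO plus dopamine at EC20 (50 nM final) for 90 min at 37 deg C. Beta-arrestin recruitment was read as luminescence after 1 h with detection reagent at ambient temperature.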
# D2 agonist: Beta-Arrestin HTS for Positive Allosteric Modulators of the Human D2 Dopamine Receptor: Agonists. D(2) dopamine receptor (Homo sapiens), P14416. DiscoveRx PathHunter D2 beta-arrestin, luminescence, 90 min; 100% = 57 uM dopamine signal. activation, % (no concentration beside the values). 0.084% of 360,000 active; in the data active = activation above about 40%; inconclusive = about 15% to 40%; inactive = below about 15%; also: compound concentration not given in the record; the text of the record calls up to 30% inactive
#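 Agonist mode: compounds alone added to overnight-plated D2 PathHunter cells for 90 min at 37 C, with 57 uM final dopamine (EC100) defining full response. Beta-arrestin recruitment detected by chemiluminescent reagent, read after 1 h at ambient temperature.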
# gsp ag: qHTS for Agonist of gsp, the Etiologic Mutation Responsible for Fibrous Dysplasia/McCune-Albright Syndrome: qHTS; gsp mutant cells, cAMP HTRF, 30 min; control for the full effect not named in the record; 0.13% of 340,000 active; AID 624287, 2012; Potency, µM (series often up to 76.9 µM), without a hit: top-dose activation (cAMP increase), hits mostly activators; active = well fitted activation curve with a large enough effect; inconclusive = small, poorly fitted or top-dose-only effect, or another doubt; inactive = no such curve, though single readings can be large or run the other way; cell line not stated here;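 also: phosphodiesterase inhibitor Ro 20-1724 added with compounds to block cAMP breakdown; potency is read from the fitted curve at half-maximal effect; nearly all actives have a fitted effect of over 60% in size; about a fifth of the inactives were tested at one dose only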
#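 Cells stably selected in G418 were plated at 2000/well, grown 16-24 hr, then given compounds in DMSO with the PDE inhibitor […] (300 uM solution added) for 30 min at 37C; cAMP was read by HTRF.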
# Six1-Eya2 inh: qHTS Assay for Inhibitors of the Six1/Eya2 Interaction; Homeobox protein SIX1 (Homo sapiens) + Protein phosphatase EYA2 (Homo sapiens), …; AlphaScreen GST-Six1/His-Eya2 binding, biochemical; hits give low values; control for the full effect not named in the record; activity change, % (concentration not given with the values); 0.56% of 360,000 active; in the data active = activity change below about -65%; inconclusive = about -30% to -65%; inactive = above about -30%; also: % is scaled to controls: 0 for no effect and ±100 for the full control effect
#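 GST-Six1 + His-Eya2 (5X stock: 250/500 nM); Tris pH 8.0, 300 mM NaCl, 0.05% BSA, 0.02% Tween 20; GSH donor/Ni acceptor beads; 1 h 37 °C dark; AlphaScreen readout.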
# CtBP-E1A blk: qHTS Assay for Inhibitors of the CtBP/E1A Interaction; CtBP / adenovirus E1A interaction (AlphaScreen); AlphaScreen GST-E1A/His-CtBP binding, 1536-well; hits give low values; control for the full effect not named in the record; activity change, % (no concentration beside the values); 0.49% of 340,000 active; AID 651724, 2012; in the data active means activity change below about -65%; inconclusive means about -30% to -65%; inactive means above about -30%; also: % is scaled to controls: 0 for no effect and ±100 for the full control effect; compound concentration not given in the record
#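 Protein mix (5X: 125 nM each GST-E1A, His-CtBP) was incubated with pinned compound 2 h at 37 deg C in dark, in 50 mM Tris pH 8.0 buffer with 300 mM NaCl. Glutathione donor and nickel acceptor beads followed; AlphaScreen signal read after 1 h.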
# Numbers without * were called inactive; ? = inconclusive; . = no result given; [ ] = dose if it differs, or a comment.
gsp antagonist	D2 PAM	D2 agonist	gsp ag	Six1-Eya2 inh	CtBP-E1A blk	SMILES
4%	-15	-5.4	-17%	-4	.	Cc1cc(-c2ccc(C)c(S(=O)(=O)Nc3cccc(CN4CCCC4)c3)c2)on1
12%	-8	-2.3	13%	6	-2	Nc1cccc([N+](=O)[O-])c1
-5%	-4	0.9	8%	4	-7	CCN(CC(=O)NCc1cccs1)C(=O)c1cc(S(=O)(=O)N2CCCCC2)ccc1Cl
-1%	-10	1.3	7%	-20	-17	CCCCn1c(O)c(N=Nc2ccccc2O)c2ccccc21
15%	10	3.3	-18%[15.4 µM]	-2	16	Cn1c(CNc2cccc(Cl)c2)nnc1SCC#N
11%	8	-2.0	21%	-1	7	N#Cc1ccc(-c2ccc(F)cc2)nc1Sc1ccc(F)cc1
-10%	-27	-5.6	29%	-92*	.	O=C(N/N=C/c1cc(Cl)cc(Cl)c1O)c1ccncc1
1%	-7	0.6	-25%	-2	6	COc1ccc(C(=O)Nc2cc(Cl)ccc2OC(=O)c2ccc(OC)cc2)cc1
.	-8	-2.7	.	4	7	Fc1cccc(Cc2c(-c3ccccc3)nc3c(Cl)cc(C(F)(F)F)cn23)c1
-4%	8	10	1%[15.4 µM]	1	-7	COc1ccc(Cc2noc(CN(C)CCc3ccccc3)n2)cc1OC
.	-8	6.4	-20%	-11	1	COc1ccc(OC)c(C=NNC(=O)NN=Cc2cc(OC)ccc2OC)c1
3%	-7	-0.2	2%	2	1	Cc1cc(OCC(=O)N2CCCC2)ccc1Cl
-7%	-2	-2.6	?	4	-2	O=C(c1ccc(S(=O)(=O)NCC2CCCO2)cc1)N1CCc2ccccc21 (stereo not drawn)
-6%	-14	-9.5	-14%[15.4 µM]	0	.	COc1cccc(NC(=S)NNC(=O)CCn2cc([N+](=O)[O-])cn2)c1
-5%	14	-3.1	4%[15.4 µM]	5	0	Cc1ccc(OCCC(=O)OCC(=O)N2CCN(S(=O)(=O)c3ccc(C)cc3)CC2)cc1
-12%	-14	-2.7	-4%	?	-29	Fc1cccc(Cn2cc(C(=S)N3CCCCC3)c3ccccc32)c1
5%	-6	-2.2	2%	11	-23	CCOC(=O)C[C@H]1c2cc(C(F)(F)F)ccc2S(=O)(=O)N1C(C)C
-10%	21	6.9	-2%	4	0	O=C(CN1c2ccccc2S(=O)(=O)c2ccccc21)Nc1ccccc1F
13%	-10	2.5	18%[15.4 µM]	15	8	Cc1ccccc1NC(=O)Nc1ccc(C(F)(F)F)cc1
11%	-24	-2.6	1%	-3	-5	COCCCNCC(=O)Nc1sc(C)c(C)c1C(=O)OC
-3%	4	1.5	.	8	-1	CC(C)(C)OC(=O)N(CCc1ccccc1)Cc1ccccc1OCc1cccc(NC(=O)C2CCC2)c1
.	-13	1.0	22%[15.4 µM]	0	-1	Cc1cc(C)cc(OCCNS(=O)(=O)c2cccs2)c1
15%	3	0.4	-29%	-2	2	COc1ccc(CNS(=O)(=O)c2cc3c(cc2Cl)NC(=O)CO3)cc1
24%	-10	-2.8	-27%	-3	24	Nn1c(CSc2nc3ccccc3o2)nnc1CSc1nc2ccccc2o1
-14%	15	-1.9	-8%	-1	3	CCCc1cc(=O)oc2cc(Oc3ncccn3)ccc12
-24%	-1	-1.8	21%[15.4 µM]	14	0	CC(C)C(=O)NN(C(=O)C(C)C)c1nc2ccccc2s1
-8%	-5	1.9	18%	-15	.	COc1cc(OC)c(C(=O)O/N=C(\N)c2ccccn2)cc1OC
-4%	2	-1.2	-25%	0	12	Cc1cc(C)c(NC2=NS(=O)(=O)c3ccccc32)c(C)c1
3%	-7	-4.0	-6%	-2	0	N#CCCN(NC1=NS(=O)(=O)c2ccccc21)C(=O)c1ccccc1Br
-11%	-29	-0.1	25%	8	.	Cc1ccn(-c2cc(O)c(-n3ccc(C)n3)cc2O)n1
-14%	-3	5.5	7%[15.4 µM]	5	.	CC(C)(O)C(=O)N=Nc1c(O)[nH]c2ccccc12
-18%	3	-0.7	-4%	5	4	O=C1OCCC1Sc1nc2cc(Cl)ccc2s1 (stereo not drawn)
-1%[15.4 µM]	-7	-1.9	0%	-2	7	CC(=O)C1=C(O)CCC1=N
12%	-6	-0.4	21%	8	7	O=C(OCC(=O)N1CCCCC1)c1cccs1
-16%	14	9.0	-27%	0	.	Cc1noc(C)c1COc1ccc(C(=O)N2CCN(c3ccccc3O)CC2)cc1
0%	-11	-0.3	16%	2	-1	C/C=C(/C)C(=O)OC1c2c(ccc3ccc(=O)oc23)OC(C)(C)C1OC(C)=O (stereo not drawn)
4%	-3	-5.2	-33%	4	-1	Cc1ccc(NS(=O)(=O)c2ccc3c(c2)NC(=O)C(C)C(=O)N3)c(Br)c1 (stereo not drawn)
13%	1	-2.8	-8%	7	-21	CC(C)NC(=O)C1CCN(C2CCN(C(=O)Cc3ccc4c(c3)OCO4)CC2)CC1
?	-2	-3.8	8%[15.4 µM]	2	-3	O=C1NC(=O)/C(=C\c2ccsc2)N1
-4%	14	0.6	-3%	9	-9	O=C(CC(c1ccccc1)c1ccccc1)NCC1CCCO1 (stereo not drawn)
-17%	-14	-1.6	16%	24	.	CC1CCCN(CCCNC(=O)c2nn(C)c3c2CS(=O)(=O)c2ccccc2-3)C1 (stereo not drawn)
-6%	-3	-3.8	.	-6	-4	COc1ccc2sc(-c3ccccc3OC)c(-c3ccc4c(c3)OCCO4)c2c1
.	-2	-4.8	.	4	3	COc1ccc(Br)c(Cn2c(C)c(C(=O)NCCC#N)sc2=O)c1
?	-3	10.0	16%	-5	0	COc1ccccc1NS(=O)(=O)c1cc(C(=O)NC2CCN(Cc3ccccc3)CC2)ccc1C
5%	1	-2.5	3%[15.4 µM]	1	8	Cc1cc(S(=O)(=O)N2CCOCC2)ccc1OCC(=O)Nc1ccccc1F
2%	-23	-6.1	-21%	3	2	Cc1cccc(NC(=O)C2CCN(S(=O)(=O)c3c(C)[nH]c(=O)[nH]c3=O)CC2)c1
11%	-24	-1.7	2%	9	18	CS(=O)(=O)N(CCc1ccccc1)CC(=O)Nc1ccccc1
9%	-8	-1.2	-5%	1	-1	Cn1c(=O)c2c(nc(NCc3ccco3)n2CC(O)CO)n(C)c1=O (stereo not drawn)
-9%	-4	1.3	-6%	-6	4	CC1(C)CC(=O)C2=C(C1)OC(N)=C(C#N)C2C1C=CCCC1 (stereo not drawn)
-11%	-35	1.1	-4%[15.4 µM]	0	7	Cc1ccc(S(=O)(=O)N(C)C)cc1NC(=S)NC1CCCC(C)C1C (stereo not drawn)

# Reformatted: entries from further up.
> Cc1noc(C)c1COc1ccc(C(=O)N2CCN(c3ccccc3O)CC2)cc1
  gsp antagonist: -16%
  D2 PAM: 14
  D2 agonist: 9.0
  gsp ag: -27%
  Six1-Eya2 inh: 0
  CtBP-E1A blk: .
> N#CCCN(NC1=NS(=O)(=O)c2ccccc21)C(=O)c1ccccc1Br
  gsp antagonist: 3%
  D2 PAM: -7
  D2 agonist: -4.0
  gsp ag: -6%
  Six1-Eya2 inh: -2
  CtBP-E1A blk: 0
> Cc1ccc(NS(=O)(=O)c2ccc3c(c2)NC(=O)C(C)C(=O)N3)c(Br)c1 (stereo not drawn)
  gsp antagonist: 4%
  D2 PAM: -3
  D2 agonist: -5.2
  gsp ag: -33%
  Six1-Eya2 inh: 4
  CtBP-E1A blk: -1

# (cont.)
gsp antagonist	D2 PAM	D2 agonist	gsp ag	Six1-Eya2 inh	CtBP-E1A blk	SMILES
-7%	0	-2.4	1%[15.4 µM]	1	-1	COc1cc2c(cc1OC)CN(C(=O)Nc1ccccc1Cl)CC2
5%	-23	-4.8	17%	8	1	Cc1cc(Br)ccc1NC(=O)CN(C)C(=O)CNC(=O)Cc1ccccc1
-30%	14	-4.7	0%	4	10	CCNC(=O)NC(=O)C(C)Sc1nc2cc(C(=O)OC)ccc2c(=O)n1-c1ccccc1 (stereo not drawn)
-3%	-2	-0.2	26%	-5	-8	Cc1ccc(S(=O)(=O)N(CCO)c2cc3c(s2)CCCC3)cc1
9%	-2	-2.1	-2%	5	4	O=S(=O)(NCc1ccccc1)c1ccccc1Br
3%	0	0.3	-7%	4	11	CC(C)Cc1nnc(NS(=O)(=O)Cc2ccccc2)s1
3%	0	-1.8	13%	12	13	CNC(=O)c1nn(-c2ccccc2)ccc1=O
8%	0	-2.7	-5%	3	.	CCN(C(=O)CN1CCCCC1)c1c(N)n(Cc2ccccc2)c(=O)[nH]c1=O
-17%	0	-0.1	-22%	-3	13	COc1ccc(C(=O)c2c[nH]c(C(=O)NCc3cccnc3)c2)cc1
19%	-31	-4.9	11%	-5	4	CN(C)CCCN(C(=O)CCc1ccccc1)c1nc2ccc(F)cc2s1
2%	-13	-4.0	15%	-4	0	Cc1nnc(N2CCc3ccccc3C2)[nH]c1=O
3%	1	-2.6	-1%[15.4 µM]	-4	-16	Cc1ccc(C)c(C(=O)Nc2cc(C)nn2-c2nc(C)cc(C)n2)c1
18%	-5	-1.5	-4%[15.4 µM]	-2	8	Cc1nnc(SCc2ccc([N+](=O)[O-])cc2)o1
17%	-14	-6.3	-6%	5	2	CCCCN1C(=O)Nc2ccccc2S1=O (stereo not drawn)
21%	-18	-1.2	13%	0	10	CN(C)CCCO/N=C(\c1ccccc1)c1ccncc1
-30%	0	7.3	9%	5	0	COc1cc(C(=S)N2CCOCC2)ccc1OS(=O)(=O)c1ccc(Cl)cc1
-4%	-4	1.7	0%	6	1	CCN(CC(=O)NCc1ccc(F)cc1)C(=O)c1ccc(C(=O)c2ccccc2)cc1
5%	-3	1.2	-25%	-2	2	O=C(Nc1ccc(S(=O)(=O)N2CCCCC2)cc1)c1ccccc1F
-13%	-10	4.1	-5%[15.4 µM]	16	0	COC(=O)c1ccc(OCC(O)CN(CCO)CC(O)Cn2ccc3ccccc32)cc1 (stereo not drawn)
-1%	-6	-1.1	-2%[15.4 µM]	4	-8	N#Cc1cc(C(=O)c2ccccc2OCC(=O)Nc2ccccc2)cn(C2CCCCC2)c1=O
5%	-1	-3.0	6%	-1	-12	O=C(CSc1ccccc1C(=O)O)Nc1ccc2c(c1)OCO2
35µM*	-4	6.2	-107%[inhibitor]	?	?	Cc1sc2ncnc(N3CCC(C(=O)N(C)CC(=O)Nc4ccccc4Br)CC3)c2c1C
7%	-19	-1.2	-44%[inhibitor]	-2	-9	COc1ccc(CN2C(=O)c3cccnc3C2Nc2ccc(OC)c(Cl)c2)cc1 (stereo not drawn)
-13%	-2	5.6	?	-2	.	CCN(CC(=O)NCc1cccs1)C(=O)c1cccc(S(=O)(=O)Nc2ccc(F)cc2)c1
